Anthrax LT inh: inhibitors of anthrax lethal toxin internalization; Cells, anthrax lethal toxin internalization, FRET ratio (460/530); Potency, µM (titrated, usually from 40 µM), without a hit: at the highest dose activity change, negative = inhibition, usual class: inhibitors; hit rate 0.67% among 70,000; AID 912; active = well fitted falling ratio curve with the 530 nm signal flat; inconclusive = other ratio curves, or a change in one channel alone; inactive = flat curves in the ratio and both channels; the % refers to the ratio; note: % is set by controls: 0 for no effect and ±100 for the full control effect; nearly all actives have a fitted effect of over 50% in size; tested in ME-180 cells; beta-lactamase reporter
SmPrx2 inh: Schistosoma mansoni Prx2 inhibition | S. mansoni Prx2 activity coupled to TGR/GSH (TGR is thioredoxin glutathione reductase), NADPH fluorescence loss, qHTS; some inactives read as strong as hits | Potency, µM | hit rate 0.07% among 65,000 | AID 448; active means full or partial inhibition curve with a strong effect at the top dose; inconclusive means weaker partial or single-point curve; inactive means no accepted curve; note: series up to 57 µM; many of its hits are not listed in these tables
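Coupled assay in which S. mansoni TGR passes NADPH reducing equivalents via glutathione to Prx2, which reduces H2O2. Compounds were preincubated 15 min at room temperature with 25 nM TGR/50 nM Prx2 mix. Kinetic NADPH fluorescence loss (ex 365/em 450 nm) was monitored.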
* marks the source's active call; other numbers are inactive results; u = inconclusive; x = not tested or not shown; [ ] = another dose, or the depositor's remark. Potency is the fitted concentration of half-maximal effect. Some of the compounds tested. The share of hits here may be higher or lower than overall.

Start of the data: the first 15 records (preview)
SMILES | Anthrax LT inh | SmPrx2 inh
Clc1cccc(-c2nnc3sc(-c4ccc5c(c4)OCO5)nn23)c1 | 1% | >57
COc1cccc(NC(=O)N2CCCC2C(=O)Nc2ccc3c(c2)OCO3)c1 (stereo not given) | 6% | >57
Cc1cccc(N2CCN(C(=O)Cn3ccc4ccccc4c3=O)CC2)c1C | 11% | >57
Cc1[nH]nc2c1C1(CCN(Cc3ccccc3)CC1)C(C#N)=C(N)O2 | x | >57
CCC(C)n1c(SC(C)C#N)nc2ccccc2c1=O (stereo not given) | u | >57
O=C(O)CCC(C(=O)O)n1c(O)c(C2=c3ccccc3=NC2=O)sc1=S (stereo not given) | 4% | x
O=C(NC1CCCc2ccccc21)C1CCN(c2nnc(-n3cccc3)s2)CC1 (stereo not given) | u | >57
O=C(COc1ccccc1)Nc1ccccc1N1CCN(c2ccc(F)cc2)CC1 | -10% | >57
COC(=O)C(C)Sc1nc2c([nH]c3ccccc32)c(=O)n1C (stereo not given) | 8% | >57
Cn1c(C(O)c2ccccc2)nc(Cl)c1Cl (stereo not given) | 2% | x
CCOC(=O)c1cn2c3c(c(F)c(F)c(F)c3c1=O)SC(N1CCCC1)=N2 | -2% | >57
COc1ccc(C(=O)Nc2cccc3c2C(=O)NC3=O)cc1S(=O)(=O)N1CCOCC1 | -18% | >57
COc1ccc(CNc2nc3c(c(C(F)(F)F)n2)CCCCC3)cc1 | -12% | >57
CCN(CC)CCN1C(=O)Cn2c(C)c(C)c3cccc1c32 | -17% | >57
CSc1cccc(NC(=O)CSc2nc3ccccc3o2)c1 | -8% | >57

The listing, from the first entry:
SMILES | Anthrax LT inh | SmPrx2 inh
Clc1cccc(-c2nnc3sc(-c4ccc5c(c4)OCO5)nn23)c1 | 1% | >57
COc1cccc(NC(=O)N2CCCC2C(=O)Nc2ccc3c(c2)OCO3)c1 (stereo not given) | 6% | >57
Cc1cccc(N2CCN(C(=O)Cn3ccc4ccccc4c3=O)CC2)c1C | 11% | >57
Cc1[nH]nc2c1C1(CCN(Cc3ccccc3)CC1)C(C#N)=C(N)O2 | x | >57
CCC(C)n1c(SC(C)C#N)nc2ccccc2c1=O (stereo not given) | u | >57
O=C(O)CCC(C(=O)O)n1c(O)c(C2=c3ccccc3=NC2=O)sc1=S (stereo not given) | 4% | x
O=C(NC1CCCc2ccccc21)C1CCN(c2nnc(-n3cccc3)s2)CC1 (stereo not given) | u | >57
O=C(COc1ccccc1)Nc1ccccc1N1CCN(c2ccc(F)cc2)CC1 | -10% | >57
COC(=O)C(C)Sc1nc2c([nH]c3ccccc32)c(=O)n1C (stereo not given) | 8% | >57
Cn1c(C(O)c2ccccc2)nc(Cl)c1Cl (stereo not given) | 2% | x
CCOC(=O)c1cn2c3c(c(F)c(F)c(F)c3c1=O)SC(N1CCCC1)=N2 | -2% | >57
COc1ccc(C(=O)Nc2cccc3c2C(=O)NC3=O)cc1S(=O)(=O)N1CCOCC1 | -18% | >57
COc1ccc(CNc2nc3c(c(C(F)(F)F)n2)CCCCC3)cc1 | -12% | >57
CCN(CC)CCN1C(=O)Cn2c(C)c(C)c3cccc1c32 | -17% | >57
CSc1cccc(NC(=O)CSc2nc3ccccc3o2)c1 | -8% | >57
CCn1c(SCC(=O)NCc2cccs2)nc2c1c(=O)n(C)c(=O)n2C | 15% | >57
O=C(C1COc2ccccc2O1)N1CCOCC1 (stereo not given) | 10% | x
CCn1cc(C(=O)OCc2ccc(F)cc2)c(=O)c2ccc(C)nc21 | 10% | >57
COC(=O)C(C(C)=O)C(NC(=O)NCc1ccccc1)c1ccccc1 (stereo not given) | u | x
COCCNC(=O)Cn1nc(-c2ccccc2OC)ccc1=O | -3% | >57
CC(C)C(O)(C(C)C)C(C)C | -6%[8 µM] | >57
NC(=O)C1CCN(S(=O)(=O)c2cccc(S(=O)(=O)N3CCCCC3)c2)CC1 | -12% | >57
COc1ccc(NC(=O)c2cc(CN3C(=O)c4ccccc4C3=O)ccc2OC)cn1 | -10% | >57
CCCc1nc(SCC(=O)Nc2cc(C)on2)c2c(=O)n(C)c(=O)n(C)c2n1 | 1% | >57
Fc1ccccc1Cn1nnc2c(NCCc3ccccn3)ncnc21 | 11% | >57
CC(=O)c1ccc2c3c(cccc13)C(=O)N(c1c(C)nn(C)c1C)C2=O | u | >57
O=C(Nc1cccnc1)c1cc(-c2ccco2)on1 | -6% | >57
C=CCN(C(=O)Nc1ccccc1)C1CC(=O)N(c2ccc(OC)cc2)C1=O (stereo not given) | 2% | >57
C1OCOCO1 | -5% | x
COc1cc2nc(NCC3CCCO3)n3nc(-c4cccnc4)nc3c2cc1OC (stereo not given) | -1% | >57
Cc1cc(C)nc(NC2=NCC(=O)N2CCc2c[nH]c3ccccc23)n1 | 7% | >57
Cc1ccc(C(=O)NCc2ccc3c(c2)OCO3)cc1N1CCCC1=O | -11% | >57
COc1ccc(-c2nc3cnc(N4CCOCC4)nc3n(CCC#N)c2=O)cc1 | u | >57
COc1cccc(-c2nc3ccc(O)cc3c(=O)o2)c1 | u | >57
CC(C)N1C(=O)CCC1C(=O)NC1CCCC1 (stereo not given) | 12% | >57
N=c1c2c(n(Cc3ccc(F)cc3)c3c1CCC3)CCC2 | -21% | x
O=C(/C=C\Nc1cccc(F)c1)c1ccc2c(c1)OCO2 | u | x
C[C@@H](C(=O)Nc1ccc2ccccc2c1)[C@H]1C[C@]1(C)[C@H](NC(=O)c1ccccc1)c1ccccc1 | u | >57
CC(=O)N1CCC2(CC1)CCN(c1ccncc1)CC2 | 6% | >57
COC(=O)NC(c1cccc(F)c1)[C@@]1(C(=O)OC)CCCC1=O (stereo not given in full) | u | x
O=C(CN1CCCCC1)Nc1nnc(-c2ccccc2)s1 | 3% | >57
CC(C)C[C@H](N)CSSC[C@@H](N)CC(C)C | 17% | >57
COc1ccccc1N1C(=O)C2C3C=CC(C3)C2(C)C1=O (stereo not given) | 2% | x
CCCc1cc(N2CCCC(C(=O)Nc3cc(Cl)ccc3OC)C2)n2ncnc2n1 (stereo not given) | -5% | >57
Cc1ccc2occ(C(=O)c3ccco3)c(=O)c2c1 | 9% | x
CCOC(=O)c1oc2cccc(OCC(O)CNC(C)C)c2c1C (stereo not given) | 4% | >57
CCOC(=O)c1nnn(-c2nonc2N)c1COc1ccccc1 | -4% | x
COc1cc(CC(=O)NCc2ccc3c(c2)OCO3)cc(OC)c1OC | 11% | >57
Cc1ccc(N2C(=O)CSC2c2cccnc2)cc1F (stereo not given) | 2% | >57
CCc1cc(C=NC2CCCCC2)c(O)s1 | u | >57
COc1ccc(CCNC(=O)CCS(=O)(=O)c2ccc3c(c2)CCN3C(C)=O)cc1OC | -11% | >57
O=C(Nc1nc(-c2ccccn2)cs1)c1ccc(S(=O)(=O)N2CCCCC2)cc1 | u | >57
O=C(NCCN1CCOCC1)c1csc2c1CCCCC2 | u | >57
COc1ccc(CCC(=O)Nc2nc3c(s2)CN(C)CC3)cc1OC | -11% | >57
CCCCN(C)Cc1c(C)[nH]c2c(Cl)cccc2c1=O | -6% | >57
COC(=O)C1C(O)=C(C(C)=N)C(=O)CC1(C)C (stereo not given) | 4% | >57
CNc1oc(Cc2cccc3ccccc23)nc1C#N | 14% | >57
Cc1nc(C)c(NC(=O)N2CCc3ccccc32)cc1NC(=O)N1CCc2ccccc21 | -3% | >57
CN1CCN(c2nc(-c3ccccc3)nc3c2oc2ccccc23)CC1 | 2% | >57
Cc1ccc(S(=O)(=O)N2CCN(c3nc(C)nc4sc(C)c(C)c34)CC2)cc1 | 5% | >57
Next section.
SMILES | Anthrax LT inh | SmPrx2 inh
CNCC(O)c1ccc(O)cc1 (stereo not given) | 3% | x
CC1CN(C2CC(C)(C)NC(C)(C)C2)CCC1=O (stereo not given) | 13% | x
COc1ccc(N2C(=O)CCC(C(=O)O)C2c2ccc(F)cc2)cc1 (stereo not given) | -4% | >57
CC(=O)N1CCc2cc(S(=O)(=O)NC(CC(C)C)C(=O)N3CCc4ccccc4C3)ccc21 (stereo not given) | 9% | >57
CCOc1cc(-c2nc(-c3ccc(OC)cc3)no2)cc(OCC)c1OCC | -6% | >57
O=C(C1CCC(CNc2c(N3CCOCC3)c(=O)c2=O)CC1)N1CCN(c2ccccc2)CC1 (stereo not given) | -4% | >57
CCOC(=O)Cc1csc(SCn2nnc3ccccc3c2=O)n1 | -15% | >57
COc1ccccc1OCCn1c(=O)sc2ccccc21 | u | >57
CSCCC(Nc1nc2ccccc2s1)C(=O)O (stereo not given) | 2% | >57
Cc1ccc(O)c(C(=O)c2cnc3c(c2)CN(CCC(C)C)C(=O)N3)c1 | 9% | >57
Cc1cc(C)nc(NS(=O)(=O)c2ccc(-n3cccc3)cc2)n1 | 14% | >57
COc1cccc2sc(N3CCN(c4nc5ccccc5s4)CC3)nc12 | u | >57
COc1ccc(CCNC(=O)CSc2nnc(Cn3c(=O)sc4ccccc43)n2C)cc1OC | x | >57
CCOC(=O)c1ccc(CSc2n[nH]c(C)n2)o1 | 5% | x
O=C(Nc1ccc(-c2nc3ccccc3o2)cc1)C1CCCO1 (stereo not given) | 11% | x
c1ccc(-c2csc(Nc3nc(N4CCOCC4)nc(N4CCOCC4)n3)n2)cc1 | u | x
CCCCOC(=O)C1[C@H]2C(=O)N(CCc3ccccc3)C[C@]23C=C[C@H]1O3 (stereo not given in full) | 12% | >57
O=C(O)C1C2C=CC(O2)C1C(=O)NCCC1=CCCCC1 (stereo not given) | x | >57
CCCS(=O)(=O)N1CCN(c2ccccn2)CC1 | -11% | >57
O=C(c1ccco1)N1CCN(C(=O)c2cc(-c3ccccn3)nc3ccccc23)CC1 | 4% | >57
CCn1c(=O)c(C(=O)NCc2cccnc2)c(O)c2ccccc21 | 2% | >57
CCC(=O)Nc1ccc(NC(=O)c2c(C)nc3ccccn23)cc1 | 12% | >57
CN(C)CCCn1cc(C2=C(c3c[nH]c4ccccc34)C(=O)NC2=O)c2ccccc21 | 0.4µM* | >57
Cc1cc(=O)[nH]c(SCc2nc3ccccc3n2Cc2ccccc2)n1 | u | >57
CC(C)CN1CCCC2(CCN(C(=O)c3ccncc3)CC2)C1 | 21% | >57
O=C(CCC1COc2ccccc2O1)Nc1ccc(Cl)cn1 (stereo not given) | -3% | >57
CCc1nc(SCC(=O)c2ccc(C)c(C)c2)n[nH]1 | -4% | >57
CC1(C)Oc2ccc3ccc(=O)oc3c2/C(=C/N)C1=O | -8% | x
N#Cc1cc2sc3nnc(-c4ccncc4)n3c2cc1C#N | 2% | >57
CC(=O)N(CC(=O)O)c1ccccc1C(=O)O | -5% | x
COC(=O)[C@H](Cc1ccccc1)NC(=O)NCc1ccc(S(N)(=O)=O)cc1 | u | >57
O=C(CSc1ncn[nH]1)NC1CC2CCC1C2 (stereo not given) | 7% | >57
COCCn1nnnc1C(c1ccccc1)N1CCN(Cc2ccc3c(c2)OCO3)CC1 (stereo not given) | -3% | >57
C=CCNC(=O)C1CCN(S(=O)(=O)CC)CC1 | 14% | >57
C=CCn1c(COc2ccccc2F)nnc1SCC(=O)NC(=O)NCc1ccco1 | 2% | >57
CCOC(=O)c1c(NC(=O)CSc2nnc(-c3ccc(OC)cc3)o2)sc2c1CCC2 | -1% | >57
Cc1cc(CN2C(=O)c3ccccc3C2=O)cc(N2CCOCC2)c1 | -2% | x
CCOC(=O)CCC(=O)N1CCNC(=O)C1 | 6% | >57
C=CCn1c(SCC(=O)Nc2cc(NC(C)=O)ccc2OC)nnc1-c1ccccn1 | -3% | >57
CNc1nc2c(c(=O)n(C)c(=O)n2C)n1Cc1ccccc1 | -12% | >57
O=C(COc1ccccc1O)Nc1ccc(Cl)cc1 | -18% | >57
OC(COc1ccc2cc(Br)ccc2c1)CN1CCCC1 (stereo not given) | u | >57
CCNc1ccc(P(=S)(N(C)C)N(C)C)cc1 | 5% | >57
COc1ccc(CNC(=O)c2cc(-c3cccc(OC)c3)on2)cc1 | u | >57
COc1ccc(/C=N/n2c(=O)[nH]c3c([nH]c4ccc(C)cc43)c2=O)cc1CN1CCOCC1 | 0% | >57
COc1ccc(NC(=O)C2CCCN(S(=O)(=O)c3cnc[nH]3)C2)cc1 (stereo not given) | 8% | >57
O=C(COC(=O)c1cccc(S(=O)(=O)N2CCN(c3ccccc3)CC2)c1)NCc1ccco1 | -4% | >57
CCOC(=O)N1CCN(S(=O)(=O)c2ccc(OCC)c3ccccc23)CC1 | 8% | >57
O=C1CCCCCN1Sc1ccccc1 | u | >57
O=C(Nc1nncs1)c1ccc(Br)c(S(=O)(=O)N2CCCC2)c1 | 14% | >57
O=C(O)c1oc(C(=O)O)c(C(=O)O)c1C(=O)O | 2%[8 µM] | >57
Cc1ccc(-n2c(Cc3cccs3)nnc2SCC(=O)Nc2ccc(S(N)(=O)=O)cc2)cc1 | u | >57
Cc1ccc(-c2nnn(CC(=O)N(CC(=O)NCC3CCCO3)c3ccc(F)c(Cl)c3)n2)o1 (stereo not given) | -4% | >57
COc1ccc2cc(C#N)c(NC(C)C)nc2c1 | -10% | >57
CCn1c(SCC(=O)Nc2nc3ccccc3s2)nnc1-c1ccc(OC)cc1 | 6% | >57
CCCn1c(CNS(=O)(=O)c2ccc(C)cc2)nc2ccccc21 | -17% | >57
O=C(C(Cc1ccccc1)n1cccc1)N1CCCCCC1 (stereo not given) | -9% | >57
COc1ccccc1C(=O)NCC(c1cccnc1)N(C)C (stereo not given) | 3% | >57
O=C(CCNc1n[nH]c(=O)[nH]c1=O)N1CCOCC1 | -12% | >57
